# HepG2 – viability loss in HepG2 hepatoma cells – cell-based, ATP luminescence, cherry-pick, activator set 2, cytotoxicity control, dose response (AID 1053143) | activity change, negative = cytotoxicity, % at the top dose, mostly 26 µM; hits show AC50 in µM | HepG2 viability, CellTiter-Glo ATP luminescence, 72 h | actives 3.7% (n = 3,400);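 active = fitted AC50 at most twice the highest valid dose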;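 also: 0 = neutral control and -100 = positive control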
# * = called active by the depositor; [ ] = dose if it differs, or a comment.
SMILES,HepG2
COc1cccc(-c2nc(-c3ccccn3)no2)c1OC,0%
COc1ccc2nc(SCc3cccc(C)c3)nc(C)c2c1,1%
Brc1ccc(-c2cn3c(n2)SCC3)cc1,-20%
COc1ccc(C)cc1NC(=O)C1CCCN1S(=O)(=O)c1ccccc1F (stereo not drawn),-12%
O=C(NC1CC1)c1ccc(-c2cnc3cccnn23)cc1,-8%
O=C(Nc1ccccc1)c1ccc(C(=O)Nc2ccccc2)nc1,-32%
CC1Cc2ccccc2N1CC(=O)Nc1ccc(S(N)(=O)=O)cc1 (stereo not drawn),-4%
O=C(c1ccco1)n1nc(-c2ccccc2)nc1SCc1ccccc1,8%
COc1cc(Cl)ccc1OCc1cc(C(=O)N2CCCC(OC)C2)no1 (stereo not drawn),-3%
Oc1ccc(-c2nnc(-c3ccc(O)cc3)nn2)cc1,-8%
O=c1cc(-c2ccccc2)oc2ccc(Cl)cc12,-16%
O=C(CNC(=O)c1cn2ccccc2n1)Nc1ccc(F)c(F)c1,-2%
O=C(Nc1ccc2nc(-c3ccco3)[nH]c2c1)c1ccco1,-19%
Cc1cc(Cl)ccc1OCc1nnc(-c2ccccc2C)o1,0%
N#Cc1ccc(C(=O)N2CCCCC2c2cc(C(=O)Nc3cccc(C#N)c3)no2)cc1 (stereo not drawn),-15%
COc1ccc(C(=O)CC(=O)c2ccccc2)cc1,-24%
CN(C)c1ccc(/C=N/NC(=O)c2ccccc2)cc1,-9%
Cc1ccc(NC(=O)C(=O)NCCCN2CCCC2=O)cc1,-10%
COc1ccc(-c2nnc3c4ccccc4c(C)nn23)cc1,-18%[12 µM]
Cc1ccnc(SCC(=O)c2cccs2)n1,-9%

# Reprinted at random: 4 records from the list.
SMILES,HepG2
COc1ccc(-c2nnc3c4ccccc4c(C)nn23)cc1,-18%[12 µM]
COc1ccc(C)cc1NC(=O)C1CCCN1S(=O)(=O)c1ccccc1F (stereo not drawn),-12%
Cc1cc(Cl)ccc1OCc1nnc(-c2ccccc2C)o1,0%
O=c1cc(-c2ccccc2)oc2ccc(Cl)cc12,-16%

# The main list resumes, repeating the ten entries before the break.
SMILES,HepG2
O=c1cc(-c2ccccc2)oc2ccc(Cl)cc12,-16%
O=C(CNC(=O)c1cn2ccccc2n1)Nc1ccc(F)c(F)c1,-2%
O=C(Nc1ccc2nc(-c3ccco3)[nH]c2c1)c1ccco1,-19%
Cc1cc(Cl)ccc1OCc1nnc(-c2ccccc2C)o1,0%
N#Cc1ccc(C(=O)N2CCCCC2c2cc(C(=O)Nc3cccc(C#N)c3)no2)cc1 (stereo not drawn),-15%
COc1ccc(C(=O)CC(=O)c2ccccc2)cc1,-24%
CN(C)c1ccc(/C=N/NC(=O)c2ccccc2)cc1,-9%
Cc1ccc(NC(=O)C(=O)NCCCN2CCCC2=O)cc1,-10%
COc1ccc(-c2nnc3c4ccccc4c(C)nn23)cc1,-18%[12 µM]
Cc1ccnc(SCC(=O)c2cccs2)n1,-9%
O=C(CCl)N(O)c1ccc(C=Cc2ccccc2)cc1,-5%
CCOC(=O)c1csc(Nc2nc3ccc(F)cc3s2)n1,-14%
CC1=CC(=C2C(=O)c3ccccc3C2=O)C=C(C)N1Cc1ccco1,-25%
COc1ccc(Nc2nc3ccccc3n2C)cc1,-21%
CCOC(=O)C1(Cc2ccccc2)CCCN(C(=O)COc2ccccc2OC)C1 (stereo not drawn),-3%
O=C(Nc1ccn(Cc2ccc(Cl)cc2)n1)c1ccccc1,11%
NC(N)=Nc1nc(C2COc3ccccc3O2)cs1 (stereo not drawn),-13%
Cc1csc(NC(=O)c2sccc2C)n1,26µM*
CN(CC(=O)Nc1cccc(F)c1)C(=O)CCNC(=O)c1ccco1,13%
Cc1cc(SCC(=O)c2ccc(Cl)cc2)nc(=O)[nH]1,14%
Clc1ccc(-c2cc(-c3ccccc3)on2)cc1,-4%
O=C(NCC1CCCO1)c1cc(-c2ccc(Cl)cc2Cl)on1 (stereo not drawn),-9%
CCOC(=O)N/C(N)=N/c1nc2ccccc2s1,17%[12 µM]
NC1=NC(=O)/C(=C/C=C/c2cccs2)S1,7%
O=C(NCCOc1ccccc1)c1ccccc1Cl,-5%
C#CCNC(=O)/C=C/c1ccc(OC)cc1,-16%
Cc1cnc(NC(=O)COc2ccc3c(c2)CCC3)s1,-1%
Nc1c(-c2ccc(Cl)cc2)cnc2c(-c3ccc(F)cc3)cnn12,-6%
COc1cc(Cl)ccc1OCc1cc(C(=O)N2CCN(C)C(=O)[C@@H]2C)no1,-12%
O=c1c2ccccc2oc2cc(-c3ccc(CN4CCOCC4)cc3)ccc12,26µM*
CCOc1ccc(N=C(C)C2=C(O)c3ccccc3C2=O)cc1,-6%
COc1ccc2oc(=O)c(-c3nc4ccccc4o3)cc2c1,-6%
O=S(=O)(c1ccc(Cl)s1)N1CCCc2cccc(O)c21,-22%
Cc1ccc(NC(=O)COc2ccc3c(c2)OCO3)c(Cl)c1,-9%
CCc1cc(C(=O)COc2ccc(F)cc2)c(O)cc1O,-7%
c1ccc(Nc2nc(-c3ccccn3)cs2)cc1,-5%
c1ccc2c(c1)ncn2CCCOc1ccc2c(c1)CCC2,-7%[12 µM]
Nc1ccc(-c2nc3ncccc3o2)c(Cl)c1,-7%
Cn1ccc(NC(=O)c2ccc(Cl)cc2Cl)n1,9%
COc1ccc(N2C(=O)c3ccccc3C2O)cc1 (stereo not drawn),-17%
COC(=O)C1C(=O)c2c([nH]c(C(=O)OC3CCCCC3)c2C)CC1C (stereo not drawn),-11%
O=C(O)CCCC(=O)Nc1ccc(OCc2nc3ccccc3s2)cc1,-18%
Cc1nc(Nc2ccccc2)sc1C(=O)c1ccccc1,6%
COc1ccc(NC(=O)c2cc3ccccc3cc2O)cc1,-14%
CCOCC(=O)N1CCN(Cc2ccc3c(c2)OCO3)CC1,0%
Oc1ccc(-c2nc3ccccc3s2)cc1,-23%
Cc1cc(C(=O)COc2ccc(Br)cc2F)c(C)n1C1CC1,-10%
CCCCOc1ccc(C(=O)Nc2ccc3c(c2)OCO3)cc1,-24%
COc1cccc(C(O)c2nc3ccccc3n2C)c1 (stereo not drawn),3%
O=C(Nc1ccccc1Cl)c1ccc2c(=O)n3c(nc2c1)CCC3,17%
O=C(c1ccccc1)c1ccc(N2CCCC2)cc1,-4%
C=CCN1C(=O)S/C(=C\c2ccc(N3CCOCC3)cc2C)C1=O,-11%
COCCNCC(=O)N1c2ccccc2Sc2ccccc21,-8%
CN(C)CCN1C(=O)C(=O)/C(=C(/O)c2ccc3c(c2)OCCO3)C1c1ccccn1 (stereo not drawn),-8%
Cc1ccc(C(=O)Nc2ccn(C)n2)cc1,-4%
COC(=O)c1c(-c2ccc(OC)cc2)sc2ccc(OC)cc12,-15%
Oc1ccc(Cl)cc1C=NN1CCCCCC1,-13%
COc1ccc(N=C2SC(CC(=O)Nc3ccccc3)C(=O)N2Cc2ccco2)cc1 (stereo not drawn),-1%
Cc1ccc(-n2ncc3c(Nc4cccc(C(=O)O)c4)ncnc32)cc1,-1%
COc1ccc(S(=O)(=O)N2CCN(CC(O)CN3CCOCC3)CC2)cc1 (stereo not drawn),-1%

# Remaining list, next part
SMILES,HepG2
O=C(Nc1ccc(-c2nc3cccnc3s2)cc1)c1ccc(Br)o1,-16%
CN(C)c1ccc(C(=O)N2CCN(c3cc(C(F)(F)F)nc4ccccc34)CC2)cc1,-3%
O=c1[nH]c2ccccc2cc1-c1nnn(-c2ccc(F)cc2)n1,22%
Nc1nc(-c2cccc(F)c2)cs1,-6%
CC(C)(C)c1ccc(SCCc2ccccn2)cc1,-5%
O=C(N/N=C/c1ccc(N2CCOCC2)cc1)c1ccccn1,-22%
CC(O)C(NS(=O)(=O)c1ccc(Cl)cc1)C(=O)OCCOc1ccc(F)cc1 (stereo not drawn),4%
O=C(COc1ccc(C(=O)c2ccccc2)cc1)NC1CCCCCC1,-22%
CCOc1cccc(C(=O)Nc2ccc3ccccc3c2)c1,-25%
O=c1c2cc(-c3ccccc3)sc2nc2n1CCC2,-12%
COc1ccc(CCNC2CC(=O)N(CCc3ccccc3)C2=O)cc1OC (stereo not drawn),-2%
COc1cc(Cl)ccc1OCc1cc(C(=O)NCc2cc(C(C)C)no2)no1,9%[12 µM]
O=C(Oc1c(CN2CCOCC2)cc(Cl)c2cccnc12)c1cccs1,26µM*
O=[N+]([O-])c1ccc2nc(-c3ccccc3[N+](=O)[O-])[nH]c2c1,-6%
O=C(NCCc1cccc(Cl)c1)c1ccc2c(c1)OCO2,-6%
C=CCn1c(C)cc(C(=O)CSc2nc3ccccc3c(=O)[nH]2)c1C,-30%
CC(=O)Oc1ccc2c(=O)c(-c3ccccc3)coc2c1,10%
CCOC(=O)c1c(NC(=O)c2cc(C)oc2C)sc(C(=O)Nc2ccc(Cl)cc2)c1C,-9%[12 µM]
Cc1cc(=O)oc2cc(NS(=O)(=O)c3ccccc3)ccc12,-4%
Fc1cccc2sc(Nc3nnc(-c4ccco4)o3)nc12,-20%
CCOc1ccc(NC2c3ccccc3C(=O)N2c2ccc(Cl)cn2)cc1 (stereo not drawn),-1%[6 µM]
O=C(Nc1ccc(F)cc1)Nc1ccc2c(c1)CCC2,1%
Cc1ccc(O)c(N=CC2=C(O)c3ccccc3C2=O)c1,-18%
Cc1cccc(C(=O)OCC(=O)N2CCCCCC2)c1C,-2%
Cc1occc1C(=O)N/N=C/c1ccc2c(c1)OCO2,8.1µM*
CC1CCc2sc(C(=O)NCC3CCCO3)cc2C1 (stereo not drawn),-5%
C/C(=N\NC(=O)c1ccncc1)c1cccc(NC(=O)c2ccc(C(C)(C)C)cc2)c1,-21%
COc1ccc(NC2=Nc3ccccc3CC2)cc1,-12%
CCOC(=O)c1cnc(SCCc2ccccc2)nc1N,-7%
CSc1nnc(NC(=O)c2ccc(S(=O)(=O)N(C)C)cc2)s1,-1%
O=C(CCSc1ccccn1)Nc1ccc(Br)cc1,-21%
O=C(c1ccc(C(F)(F)F)cc1)n1ccc(-c2cccs2)n1,-8%
COCCN1CCCc2nc(-c3ccc(F)cc3)ccc21,-13%
O=c1cc(-c2ccc3c(c2)OCCO3)oc2ccc(Cl)cc12,-5%
CC1Oc2ccccc2C=C1/C=N/NC(=O)c1ccccc1 (stereo not drawn),34%
Cc1ccc(NC(=O)c2ccccn2)c(Br)c1,3%
COc1ccccc1/C=C/C(=O)NCCC1=CCCCC1,-7%
C/C(=N\NC(=O)c1ccco1)c1ccc(NC(=O)c2cccs2)cc1,-19%
CCCCCCOC(=O)c1ccccc1NC(=O)/C=C/C(=O)O,-15%
CC(C)=CC(=O)Nc1ccc(Cl)cc1,-11%
CC(=O)c1sc(NC(=O)C2COc3ccccc3O2)nc1C (stereo not drawn),5%
Cc1ccc(-n2nnc(-c3ccnc4ccccc34)n2)cc1,-20%
CSc1ccccc1OCc1cc(C(=O)N2CCCC(C)C2)no1 (stereo not drawn),17%
Cc1ccc(N2C(=O)c3ccc(N)cc3C2=O)cc1,-20%
CCOC(=O)c1nnn(CC(=O)NC(=O)Nc2cccc(CC)c2)c1C(=O)OCC,-15%
FC(F)(F)c1ccnc(Oc2ccc(C3=NCCS3)cc2)c1,35%
Cc1ccc(COc2ccc(/C=N/O)cc2)cc1,-7%
O=[N+]([O-])c1cccc(-c2nnc(-c3ccccc3F)o2)c1,-9%
CC(C)CN(CCOc1cccc(N2C(=O)C3=C(CCCC3)C2=O)c1)CC(C)C,-9%
c1ccc(C2=NN(c3ccccc3)CC2)cc1,10%

# Other compounds follow:
SMILES,HepG2
Cc1nc(OCC(C)C)c2sc3nc4c(cc3c2n1)COC(C)(C)C4,-19%
O=C(c1cc(-c2ccccc2O)on1)N1CCCC1,-9%
O=C(/C=C/Nc1ccccc1O)c1ccco1,-8%
Cc1ccccc1NC(=O)C1CCCN1S(=O)(=O)c1ccccc1C(F)(F)F (stereo not drawn),0%
Cc1cc(/C=N/NC(=O)c2ccccc2F)c(C)n1-c1ccccc1,-1%
O=[N+]([O-])c1ccc(N/N=C/c2ccccc2)c(F)c1,-16%
CNC(C)C#Cc1ccc2c(=O)c3ccccc3oc2c1 (stereo not drawn),-4%
CC(C)Nc1ncnc2c1cnn2-c1ccccc1,17%
COc1ccc(N/C=C\C(=O)c2ccc3c(c2)OCO3)cc1,5%[12 µM]
COc1ccc(/C(C)=N/Nc2nncc3ccccc23)cc1,-22%
COc1ccc(Nc2nccc(-c3cccc(N)c3)n2)cc1,19µM*
CN1CCSc2ccc(C(=O)Nc3cc(F)ccc3F)cc21,3%
CCOC(=O)c1ccc(N/C=C/C(=O)C(C)(C)C)cc1,15%
c1csc(-c2noc(COc3ccc4c(c3)CCCC4)n2)c1,19%
O=C(CCNC(=O)c1ccc(Cl)cc1)NC1CCCCCC1,-3%
COc1ccc(C(C(=O)NC2CCCC2)n2c(C3CCN(C(C)=O)CC3)nc3ccccc32)cc1 (stereo not drawn),2%
Nc1ccc(C(=O)Nc2nc3ccccc3s2)cc1,26µM*
c1cc(-c2cc3cc4c(cc3cn2)OCO4)cs1,-15%
O=C(O)c1ccc(/C=C(\c2nc3ccccc3[nH]2)c2nc3ccccc3s2)cc1,13%
O=C(Nc1ncccc1O)c1ccc2c(c1)OCCO2,12µM*
Cc1ccc(C2(C)NC(=O)N(CC(=O)Nc3ccc(-c4nc5ccc(C)cc5s4)cc3)C2=O)cc1 (stereo not drawn),-19%
O=C(Nc1cccnc1)c1cc(-c2cc(Cl)ccc2O)n[nH]1,-7%
Cc1ccc(C(=O)Nc2cccc(-c3ccc(N4CCOCC4)nn3)c2)cc1[N+](=O)[O-],0%
COc1ccc2c(c1)CCc1c(C(=O)NCC(C)C)noc1-2,-10%
Fc1ccc(-n2nnc(-c3cccnc3)n2)cc1,-19%
COc1cc2nn(-c3ccccc3N)nc2cc1OC,-9%
Cc1ccc(NC(=O)c2ccc3c(c2)CCN3S(C)(=O)=O)cc1,-18%[6 µM]
Cc1cc(Br)ccc1OCc1nc(-c2cccnc2)no1,-18%
Cc1ccnc2nc(C(=O)Nc3nc4ccccc4s3)nn12,-15%
CCOC(=O)N1CCN(C(=O)c2cc(COc3c(F)cccc3F)on2)CC1,2%
c1ccc(CNc2ncnc3c2oc2ccccc23)nc1,-29%
Fc1ccc(-n2nnc(-c3ccnc4ccccc34)n2)cc1,-30%
O=C(Nc1nc2cc3c(cc2s1)OCO3)C1CCCCC1,40%
COc1ccc(NC(=O)COC(=O)CN2C(=O)C3CC=CCC3C2=O)c([N+](=O)[O-])c1 (stereo not drawn),-3%

# Source: PubChem (Broad Institute)

# A portion of the library; the hit share may differ from the screen's.
